RE007 growth inh – qHTS Assay for Inhibitors of the HIV-1 protein Vpr; S. pombe RE007 Vpr strain, BacTiter-Glo ATP luminescence, 24 h; control for the full effect not named in the record; Potency, µM (highest dose often 92.2 µM), inactives show at the top dose activity change, negative = less growth; 0.21% of 360,000 active; active = well fitted falling curve with a large enough effect; inconclusive = small, poorly fitted or top-dose-only effect; inactive = no such curve, though single readings can be large or run the other way;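 further: on the % scale 0 is the no-effect control and ±100 the full control effect; nearly all actives have a fitted effect of over 50% in size; the assay follows cell death caused by Vpr and the record does not say whether a fall means rescue or toxicity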
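Fission yeast strain RE007, carrying one chromosomally integrated HIV-1 vpr copy, was seeded at OD 0.01 in PMG+AL medium with 23 nL pinned compound. After 24 h at 30 °C and 99% humidity, viability was read by BacTiter-Glo luminescence.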
LASV entry inh – qHTS for Inhibitors of binding or entry into cells for Lassa Virus | AID 540256, 2011 | Potency, µM (series often up to 37.9 µM), for inactives: top-dose activity change, negative = inhibition, usual class: inhibitors | 1.2% of 300,000 active | Lassa virus pseudotype entry inhibition, cell reporter; control for the full effect not named in the record; active means well fitted inhibition curve with a large enough effect; inconclusive means small, poorly fitted or top-dose-only effect, or effect the other way; inactive means flat fitted curve, though single readings scatter; tested in HEK293 cells; further: on the % scale 0 is the no-effect control and ±100 the full control effect; nearly all actives have a fitted effect of over 50% in size; luciferase read-out
NS1 inh – qHTS Assay for Inhibitors of Influenza NS1 Protein Function | AID 2326, 2010 | 0.4% of 270,000 active | Potency, µM (top dose mostly 46.1 µM), for the others: at the top dose activity, positive = more growth | S. cerevisiae slowed by influenza A NS1, growth recovery by OD600; active means well fitted rising curve with a large enough effect; inconclusive means small, poorly fitted or top-dose-only effect; inactive means no such curve, though single readings can be large or run the other way; further: nearly all actives have a fitted effect of over 50% in size
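Recovery from NS1-induced slow growth read by OD600 in budding yeast switched to galactose assay medium (pH 6.0, -URA) at 1:100 dilution. Compound 23 nl per well; the matching strain lacking NS1 serves as control.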
Cruzain noTriton – qHTS Assay for Promiscuous and Specific Inhibitors of Cruzain (without detergent); Cruzipain (Trypanosoma cruzi), P25779; purified cruzain, Z-FR-AMC fluorescence, no detergent; Potency, µM, inactives show max response, negative = inhibition, usual class: inhibitors; 2.3% of 200,000 active; AID 1476, 2009;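 further: plate controls were enzyme without inhibitor for no effect and buffer without enzyme for full effect; nearly all actives have a fitted effect of over 40% in size; top concentration of the series not given in the record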
Target sequence (P25779 123-467 limits assumed): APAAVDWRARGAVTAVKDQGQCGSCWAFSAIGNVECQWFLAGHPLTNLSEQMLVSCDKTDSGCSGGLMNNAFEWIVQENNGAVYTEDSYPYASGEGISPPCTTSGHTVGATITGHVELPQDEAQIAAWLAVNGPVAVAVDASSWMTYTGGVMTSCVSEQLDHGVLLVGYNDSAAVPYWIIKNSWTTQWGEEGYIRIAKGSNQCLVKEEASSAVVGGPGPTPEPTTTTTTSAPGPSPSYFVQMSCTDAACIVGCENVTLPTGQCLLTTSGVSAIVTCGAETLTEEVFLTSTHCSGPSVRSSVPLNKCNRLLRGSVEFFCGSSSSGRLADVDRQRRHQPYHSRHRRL
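Detergent-free condition (0.00005% Triton X-100) in acetate buffer pH 5.5 with DTT. 1.5 nM enzyme and compound were pre-mixed 15 min, then 2 uM Z-FR-AMC substrate added; reaction progress from fluorescence change between first and third reads (60 s).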
MARV entry inh – qHTS for inhibitors of binding or entry into cells for Marburg Virus | Marburg virus pseudotyped entry inhibition, cell reporter; control for the full effect not named in the record; about a third of the inactives were read at about 46 µM | 1.8% of 300,000 active | Potency, µM (series often up to 37.8 µM), without a hit: top-dose activity change, negative = inhibition, actives largely listed as inhibitors | AID 540276, 2011; active = well fitted inhibition curve with a large enough effect; inconclusive = small, poorly fitted or top-dose-only effect, or effect the other way; inactive = flat fitted curve, though single readings scatter; tested in HEK293 cells; about a fifth of its hits are not listed in these tables; further: on the % scale 0 is the no-effect control and ±100 the full control effect; luciferase read-out
Cruzain inh Det – qHTS Assay for Promiscuous and Specific Inhibitors of Cruzain (with detergent); Potency, µM, inactives show max response, negative = inhibition, usual class: inhibitors; 0.43% of 200,000 active; Cruzipain (Trypanosoma cruzi), P25779; AID 1478, 2009; purified cruzain, Z-FR-AMC fluorescence, 0.01% Triton;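 further: plate controls were neutral wells for no effect and buffer without enzyme for full effect; nearly all actives have a fitted effect of over 40% in size; top concentration of the series not given in the record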
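15 min RT preincubation of 1.5 nM cruzain with compound, then 2 uM Z-FR-AMC added; kinetic AMC fluorescence, 60 s delta. Triton X-100 0.01%, pH 5.5.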
SARS PLpro yeast – qHTS of Yeast-based Assay for SARS-CoV PLP; S. cerevisiae expressing SARS-CoV PLpro, growth rescue; control for the full effect not named in the record; Potency, µM (series often up to 32.9 µM), without a hit: at the top dose activity, positive = growth rescue; 0.19% of 330,000 active; AID 485353, 2010; active means well fitted rising curve with a large enough effect; inconclusive means small, poorly fitted or top-dose-only effect; inactive means no such curve, though single readings can be large or run the other way; further: 0% is about no effect; nearly all actives have a fitted effect of over 55% in size; growth read by luminescence after 48 h
StopGo reporter – High Throughput Screening for Foot and Mouth Disease Virus Antivirals. human cells with a luciferase reporter of 2A StopGo recoding; control for the full effect not named in the record. Potency, µM (series often up to 57.9 µM), inactives show at the top dose signal change, negative = less light. 1.2% of 410,000 active. AID 1159524, 2015; active = well fitted falling curve with a large enough effect; inconclusive = small, poorly fitted or top-dose-only effect; inactive = no such curve, though single readings can be large or run the other way; tested in HEK293T cells; further: on the % scale 0 is the no-effect control and ±100 the full control effect; nearly all actives have a fitted effect of over 45% in size; luciferase light after 4 h
* = called active by the depositor; ? = inconclusive; . = not tested or not shown; & = joins results of further samples; [ ] = another dose, or the depositor's remark. Unless noted, the call rests on the fitted dose curve; in most records, active means well fitted curve in the direction sought with a large enough effect; inconclusive means small, poorly fitted or top-dose-only effect, or another doubt; inactive means no such curve, though single readings can be large; an effect the other way counts as inactive or inconclusive. Potency means the concentration at half of the fitted maximal effect.

Preview, four compounds:
SMILES	RE007 growth inh	LASV entry inh	NS1 inh	Cruzain noTriton	MARV entry inh	Cruzain inh Det	SARS PLpro yeast	StopGo reporter
Cc1ccc(C)n1-c1ccc(-n2cnnn2)cc1	-3%	0%	-9%	0%	0%	-0.4%	0%	8%
CC(C)OCCCNC(=O)c1ccc(C2SCC(=O)N2Cc2ccco2)cc1 (stereo not given)	17%	2%	9%	.	15%[46.1 µM]	.	0%	-27%
Cc1cc(C)nc(SCC(=O)Nc2ncc(Cc3ccc(Cl)c(Cl)c3)s2)n1	-4%	-30%	-5%	-2%	?	-0.1%	-1%	-16%
Cc1ccccc1-n1nc2c(c1NC(=O)CCCl)CSC2	-15%	.	-1%	.	.	.	2%	-7%

The list itself, repeating the preview:
SMILES	RE007 growth inh	LASV entry inh	NS1 inh	Cruzain noTriton	MARV entry inh	Cruzain inh Det	SARS PLpro yeast	StopGo reporter
Cc1ccc(C)n1-c1ccc(-n2cnnn2)cc1	-3%	0%	-9%	0%	0%	-0.4%	0%	8%
CC(C)OCCCNC(=O)c1ccc(C2SCC(=O)N2Cc2ccco2)cc1 (stereo not given)	17%	2%	9%	.	15%[46.1 µM]	.	0%	-27%
Cc1cc(C)nc(SCC(=O)Nc2ncc(Cc3ccc(Cl)c(Cl)c3)s2)n1	-4%	-30%	-5%	-2%	?	-0.1%	-1%	-16%
Cc1ccccc1-n1nc2c(c1NC(=O)CCCl)CSC2	-15%	.	-1%	.	.	.	2%	-7%
CCC(NC(=O)c1cc(COc2c(F)cccc2F)on1)c1ccncc1 (stereo not given)	-1%	2%	2%	.	-34%	.	1%	13%
NC(=O)CSc1nnc(-c2cnccn2)n1-c1ccccc1	9%	14%	4%	-11%	1%	6.0%	1%	-11%
O=C(CSc1nc2ccc(Cl)cc2[nH]1)NC1CCCc2ccccc21 (stereo not given)	-13%	-25%[46.1 µM]	4%	-1%	?	-10%	?	28µM*
Cc1cccc(NC(=O)C(NS(=O)(=O)c2ccc3c(c2)oc(=O)n3C)C(C)C)c1 (stereo not given)	.	6%[46.1 µM]	.	-15%	16%[46.1 µM]	0.8%	.	13%
O=C(Cn1cc([N+](=O)[O-])cn1)Nc1cccnc1	7%	3%	.	.	37%[46.1 µM]	.	0%	9%
CC(C)Cc1nnc(NC(=O)c2ccncc2)s1	16%	8%	-8%	7%	16%	0.6%	15%	29%
COc1ccc(N2C(=O)/C(=C/c3cccnc3)NC2=S)cc1	-2%	0%	5%	?	-24%	-0.3%	10%	0%
CCOC(=O)CC1(NC(=O)c2cc(COc3cccc(OC)c3)on2)CCCCC1	-7%	.	-9%	.	.	.	3%	-22%
COc1cc(/C=N/NC(=O)Nc2ccccc2)ccc1OCCOc1ccccc1C	12%	?	0%	25µM*	2.3µM*	2.6%	4%	-6%
COc1cccc(/C=N/NC(=O)c2cc(-c3cccn3C)n[nH]2)c1O	5%	2.2µM*	26%	2%	8.9µM*	-7.9%	7.1µM*	3%
CN(Cc1ccccc1)C(=O)COC(=O)c1ccc(-n2cnnn2)cc1	-1%	-5%	.	.	9%	.	1%	-4%
C/C=C/c1ccc(OCCCNC)c(OC)c1	5%	?	-5%	-1%	?	7.3%	-5%	1%
O=C(NC(=S)Nc1ccc(Cl)c(C(=O)O)c1)c1cncc(Br)c1	2%	.	6%	.	-2%	.	-2%	-14%
COc1ccc(CNC(=O)CCNS(=O)(=O)c2ccc(Cl)cc2)cc1	2%	-8%[46.1 µM]	.	.	16%[46.1 µM]	.	-1%	-9%
COCCCNC(=O)c1nn(-c2ccc(C)cc2)c(=O)n(C)c1=O	.	6%[46.1 µM]	.	-12%	.	-3.2%	.	-15%
CCN(Cc1ccccc1)S(=O)(=O)c1ccc(C(=O)Nc2nnc(C)o2)cc1	2%	?	-135%	.	?	.	13%	15%
CCC1(CC)C(=N)N(C)C(=O)NC1=O	18%	-1%	7%	-10%	-14%	-1.2%	-2%	-18%
CN1CCc2c(sc3c2C(=O)NC(c2ccc4c(c2)OCO4)N3)C1 (stereo not given)	?	2%	-2%	-19%	15%	-6.3%	-3%	0%
O=C(Nc1ccc(S(=O)(=O)Nc2ccccc2)cc1)C1CC1	-1%	-20%[46.1 µM]	-3%	.	-1%[46.1 µM]	.	-5%	-5%
CNC(=O)c1ncoc1-c1ccc(Cl)cc1	-2%	-2%[46.1 µM]	-3%	.	3%[46.1 µM]	.	0%	-2%
Cc1cc(C)n(CC(=O)N2N=C(C(F)F)CC2(O)C(F)F)n1 (stereo not given)	-3%	-8%	8%	13%	8%	-2.3%	4%	-16%

Only StopGo reporter, SARS PLpro yeast and LASV entry inh, for some of the entries so far:
canonical_smiles | StopGo reporter | SARS PLpro yeast | LASV entry inh
Cc1ccccc1-n1nc2c(c1NC(=O)CCCl)CSC2 | -7% | 2% | .
CCC(NC(=O)c1cc(COc2c(F)cccc2F)on1)c1ccncc1 (stereo not given) | 13% | 1% | 2%
NC(=O)CSc1nnc(-c2cnccn2)n1-c1ccccc1 | -11% | 1% | 14%
O=C(CSc1nc2ccc(Cl)cc2[nH]1)NC1CCCc2ccccc21 (stereo not given) | 28µM* | ? | -25%[46.1 µM]

More structures.
SMILES	RE007 growth inh	LASV entry inh	NS1 inh	Cruzain noTriton	MARV entry inh	Cruzain inh Det	SARS PLpro yeast	StopGo reporter
O=C(O)CC1C(=O)NCCN1Cc1ccc(F)c(F)c1 (stereo not given)	1%	.	6%	1%	.	-2.2%	?	-10%
NC(=O)Cc1ccc(C(=O)c2ccc(Cl)cc2)s1	1%	?	.	.	?	.	-2%	22%
CCCCN(C)CCCNC(=O)c1cn(CC)c2ccc(S(=O)(=O)N3CCOCC3)cc2c1=O	1%	.	-2%	.	.	.	-5%	0%
Cc1ccc(NC(=O)CN(C)Cc2nc3ccccc3c(=O)[nH]2)c(Br)c1	-17%	16%	-12%	8%	-25%	-2.6%	-4%	-27%
CNc1nc2[nH]c(=O)c3c(c2s1)OC(N)=C(C#N)C3c1cccc(F)c1 (stereo not given)	18%	8%	?	-6%	3%	-0.4%	18%	4%
CCOc1cc(C(=O)Nc2ccc3c4c(cccc24)C(=O)N3CC)cc(OCC)c1OCC	6%	-3%	25%	?	18µM*	-8.3%	-11%	?
O=C(COC(=O)c1cncc(Br)c1)NCC12CC3CC(CC(C3)C1)C2	8%	19%	.	.	?	.	-3%	-16%
COc1ccc(C2C(C(=O)N3CCC4(CC3)OCCO4)c3cc(OC)c(OC)cc3C(=O)N2C)cc1 (stereo not given)	0%	-16%	-4%	-4%	17%&17%	0.3%	0%	-23%
COc1ccc(-n2nnc(-c3nsc(NC(=O)c4ccc(C)c(C)c4)n3)c2C)cc1Cl	.	0%[46.1 µM]	.	?	.	0.3%	.	-19%
Nn1c(SCc2cc([N+](=O)[O-])cc3c2OCOC3)nnc1-c1ccccn1	-6%	-6%	1%	.	-25%[46.1 µM]	.	0%	-17%
COc1cccc(-c2c(NC(=O)c3ccco3)n(-c3ccc(C)cc3)nc(C)c2=O)c1	12%	4%	-15%	2%	?	-5.1%	5%	20%
O=C(NNS(=O)(=O)c1ccccc1)c1ccncc1	12%	19%	0%	-2%	-1%	8.4%	1%	16%
CCOC(=O)C(NC(=O)CC)(Nc1ccc(S(=O)(=O)Nc2onc(C)c2C)cc1)C(F)(F)F (stereo not given)	11%	13%	-65%	13%	-6%&-7%	2.4%	-1%	-1%
OCCN1CCN(CCCN2c3ccccc3C=Cc3ccccc32)CC1	.	?	-13%&-24%	4%&3%	7.9µM*	-2.8%&-2.6%	.	.
O=C(NC(=S)N1C[C@H]2C[C@H](C1)c1cccc(=O)n1C2)c1ccc(Cl)cc1	12%	.	1%	.	.	.	-3%	-5%
CSc1cccc(CN2CCC(CCC(=O)NC3CC3)CC2)c1	2%	.	-7%	.	.	.	-2%	-8%
CCOC(=O)C1CCN(c2nc(-c3ccc(C)cc3)nc3ccccc23)CC1	-25%	4%	.	.	?	.	3%	-17%
CCc1ccccc1OCCCN1CCCC1	7%	.	-8%	.	.	.	-12%	5%
Cc1onc(-c2ccccc2)c1C(=O)NC(=S)NNC(=O)c1ccco1	19%	?	-65%	.	-17%[46.1 µM]	.	0%	-5%
CC(Sc1nnc(NC(=O)c2cc3ccccc3oc2=O)s1)c1ccccc1 (stereo not given)	3%	.	-7%	13µM*	.	6.4%	-1%	-2%
CCOC(=O)Cc1csc(/N=C/c2c(O)n(-c3ccc(C)cc3C)c(=O)c3ccccc23)n1	-5%	?	15%	7%	0%	-2.5%	0%	?
CCc1ccc(-c2nc3cc(NC(=O)c4ccc(F)cc4)ccc3o2)cc1	.	18%[46.1 µM]	.	?	.	0.7%	.	-21%
COC(=O)C1(C)NC(c2ccc(Cl)cc2)C2C(=O)N(c3ccccc3)C(=O)C21 (stereo not given)	-1%	.	-7%	.	.	.	0%	0%
CCOC(=O)Cc1csc(NC(=S)NC(=O)c2ccccc2C)n1	-8%	10%	-38%	-14%	-9%	-0.4%	-7%	.
O=c1cc(CSc2nc3cc(Cl)ccc3o2)nc2sccn12	4%	10%	-93%	-4%	2%	-8.8%	-2%	-13%
CC(C)S(=O)(=O)c1csc(NC(=O)Nc2ccc(Cl)cc2)c1	97%	7%[46.1 µM]	-2%	.	?	.	1%	-7%
CCOC(=O)c1sc(C)c(C(=O)NC2CCCCC2)c1N	-2%	6%	-18%	3%	-2%[46.1 µM]	-3.0%	1%	3%
O=C(NCCn1ccc2ccccc21)C1CCCCC1	-12%	.	-76%	-1%	.	-3.4%	?	?
CNC(=O)CSc1nnc(-c2cccnc2)n1-c1ccc(C)cc1	-3%	11%[46.1 µM]	8%	.	-6%[46.1 µM]	.	0%	-12%

Source: PubChem (National Center for Advancing Translational Sciences (NCATS))
